Assay outcomes from PubChem BioAssay.
Bfl-1 A1 inh: inhibitors of the anti-apoptotic protein A1, read as caspase activation; MEF A1-2A-BIM cells, Caspase-Glo 3/7 luminescence, 3 h; percent of clofoctol response, vehicle zero; caspase activation, % (no concentration beside the values); 0.066% of 330,000 active;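 active = over half of replicate activation scores above 10%, or exactly half above 10 with the replicate mean above 10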;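 note: wells of about 30 µL received 50 nL stock; many hits fall short of the cut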
UCH37 inh: blocks the human deubiquitinase UCH37; Q9Y5K5; purified proteasome/UCH37, Ub-AMC cleavage fluorescence; inhibition, % (no concentration beside the values); 0.33% of 330,000 active;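 active = mean of two replicates above 20%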;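 note: 0% = compound-free wells with enzyme and 100% = wells lacking proteasome; stock transfer was 100 nL into about 20 µL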
Target sequence (Q9Y5K5 whole entry, looked up): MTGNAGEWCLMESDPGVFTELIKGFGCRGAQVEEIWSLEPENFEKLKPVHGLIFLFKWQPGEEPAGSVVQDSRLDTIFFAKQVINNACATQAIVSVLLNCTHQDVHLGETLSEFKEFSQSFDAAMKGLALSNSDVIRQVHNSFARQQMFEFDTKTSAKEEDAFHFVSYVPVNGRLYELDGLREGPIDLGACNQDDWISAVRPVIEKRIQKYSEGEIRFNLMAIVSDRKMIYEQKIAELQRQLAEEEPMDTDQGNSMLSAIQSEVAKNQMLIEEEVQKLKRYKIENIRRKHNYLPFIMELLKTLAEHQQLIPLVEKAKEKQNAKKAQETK
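Material: human UCH37 enzyme supplied as purified proteasome complex. Measure: % inhibition of Ub-AMC cleavage fluorescence. Medium: pH 7.4 Tris-HCl (50 mM) with ovalbumin, ATP-MgCl2, DTT. Times: 30 min preincubation with enzyme, 25 min cleavage at room temperature. Detection: AMC fluorescence intensity at 355/460 nm.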
rRNA inh HTS: inhibits bacterial ribosomal RNA function over humanized ribosomes; E. coli WT GFP vs humanized-ribosome RFP mutants, fluorescence, 24 h; stronger effect = lower value; DMSO median 0, no signal -100; 1.6% of 350,000 active; GFP signal change (wild-type ribosome), % (concentration not given with the values);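 active = significant combined selectivity score with lowered wild-type GFP, culture density cut under 30%, mutant RFP and density less affected; inactive = any of these conditions unmet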; note: one replicate is shown; some compounds called inactive have numbers as strong as hits
E coli growth: blocks Escherichia coli growth. OD600, 23 h; stronger effect = lower value. OD600 absorbance (no concentration beside the values). AID 1053175. 0.21% of 330,000 active;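 active = OD600 absorbance below the run mean of sample wells minus 3.6 SD, in any replicate, cut at about 0.56 in these data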;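 note: stock transfer was 300 nL into about 60 µL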
FGF22 binding: binders of recombinant human FGF22 by thermal shift; AID 651658; Q9HCT0; SYPRO orange fluorescence; percent of sucrose octasulfate shift, DMSO zero; calls only at 9.99 µM; 1.5% of 340,000 active;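 active = melting point raised past a set limit in the mean and every replicate; three in four hits are not shown here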
Target sequence (Q9HCT0 whole entry, looked up): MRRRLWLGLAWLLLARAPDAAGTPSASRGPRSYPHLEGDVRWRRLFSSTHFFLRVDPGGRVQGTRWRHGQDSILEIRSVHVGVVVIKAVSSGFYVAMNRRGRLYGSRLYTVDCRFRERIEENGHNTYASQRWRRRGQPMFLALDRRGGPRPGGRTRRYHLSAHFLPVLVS
Beta apoptosis: blocks beta cell apoptosis; AID 435005; 0.8% of 300,000 active; INS-1E cytokine-induced death, ATP luminescence, 48 h; percent of positive-control rescue, neutral wells zero; protection from apoptosis, % (no concentration beside the values);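 active = all replicates at 75% or more, or half of them and the mean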;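 note: 0% = cytokine-treated negative control wells and 100% = positive control rescue; higher means more ATP so stronger rescue from cytokine killing; wells of about 40 µL received 100 nL stock; the first replicate is given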
T cruzi inh: blocks replication of Trypanosoma cruzi. inhibition, % (test concentration not listed). AID 1885. T. cruzi beta-gal in NIH3T3, luminescence, 90 h. 1.4% of 300,000 active;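 active = mean inhibition across valid replicates above about 55%, limit read from the data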;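 note: signal also drops with host cell toxicity which is not excluded here; 0% = plate median of DMSO wells and 100% = zero luminescence signal; higher percent means less beta-gal luminescence so fewer parasites; stock transfer was 50 nL into about 50 µL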
MLL AF4-AF9 inh: inhibitors of human MLL-AF4/AF9 interaction; P42568; AlphaScreen, biotin-AF4 peptide binding to FLAG-AF9; 0.47% of 350,000 active; inhibition, % at 10 µM;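 active = every replicate reaching a set inhibition limit, whatever the replicate mean, cut at about 25% in these data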;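 note: 0% = plate neutral control median and 100% = total signal loss; the record names both 10 and 1 µM as test concentration; the first replicate is given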
Target sequence (P42568 whole entry, looked up): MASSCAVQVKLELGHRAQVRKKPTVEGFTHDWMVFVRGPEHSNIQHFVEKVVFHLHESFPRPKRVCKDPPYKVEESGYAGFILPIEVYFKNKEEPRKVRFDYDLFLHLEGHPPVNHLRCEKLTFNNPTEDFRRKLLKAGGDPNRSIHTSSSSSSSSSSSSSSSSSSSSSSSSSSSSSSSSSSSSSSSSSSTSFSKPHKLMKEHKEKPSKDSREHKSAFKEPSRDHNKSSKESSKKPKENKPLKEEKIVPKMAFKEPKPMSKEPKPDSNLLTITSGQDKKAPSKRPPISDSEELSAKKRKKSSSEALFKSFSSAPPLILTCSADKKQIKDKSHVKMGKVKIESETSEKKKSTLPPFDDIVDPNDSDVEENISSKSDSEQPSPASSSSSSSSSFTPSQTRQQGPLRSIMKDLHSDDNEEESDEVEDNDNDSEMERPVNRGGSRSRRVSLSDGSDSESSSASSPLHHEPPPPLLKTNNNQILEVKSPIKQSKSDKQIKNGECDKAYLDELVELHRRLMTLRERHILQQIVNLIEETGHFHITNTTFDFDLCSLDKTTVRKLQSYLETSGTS
rRNA inh HTS OD600: also measured in rRNA inh HTS; calls as there; OD600 change, %; measured here: OD600 growth;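 optical density of the mix in the first replicate; 0 = DMSO median and -100 = no signal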
rRNA inh HTS RFP: further read-out of rRNA inh HTS, marked with its call; RFP signal change, %; measured here: RFP humanized mutant strains;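 first replicate; 0 = DMSO median and -100 = no signal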
Starred values were filed as active, the others as inactive; i = inactive; . = no result given; & = joins results of further samples.

SMILES	Bfl-1 A1 inh	UCH37 inh	rRNA inh HTS	rRNA inh HTS OD600	rRNA inh HTS RFP	E coli growth	FGF22 binding	Beta apoptosis	T cruzi inh	MLL AF4-AF9 inh
CCCCN(C(=O)NC(=O)Nc1ccc(C)cn1)S(C)(=O)=O	0.8	-106.8	12.6	17.5	2.7	0.701	i	1.7	-7.4	-0.6
COc1ccc(C(=O)Nc2cc(OCc3ccccc3)c(Cl)cc2Cl)cc1	-0.6	-0.9	.	.	.	0.766	.	4.3	-4.7	.
CCc1nnc(NS(=O)(=O)c2ccc(N/C=C/C(=O)c3ccc(OC)cc3)cc2)s1	-0.1	-142.9	-14.2	-10.6	-6.5	0.689	i	-0.6	2.5	1.1
CCOc1ccc(NC(=O)NNC(=O)c2ccc(Cl)cc2Cl)cc1	1.9	2.8	10.2	6.3	2.1	0.725	i	-7.3	4.8	0.5
O=C(COc1ccc2c(c1)oc(=O)c1ccccc12)NCCN1CCOCC1	-0.2	-370.3	-10.2	-10.3	-0.4	0.711	i	6.2	-1.1	-2.5
CC1CCN(C(=O)CNC(=O)c2cccc(OC(F)F)c2)CC1	-0.1	2.5	11.9	9.9	-4.2	0.679	i	-2.6	-17.0	-1.0
CN(C)c1nc(N(C)C)nc(N(C#N)CN2C(=O)c3ccccc3S2(=O)=O)n1	-0.1	2.2	17.9	6.4	0.4	0.708	i	0.3	-2.3	-0.2
CCc1ccc(NC(=O)C2CCCN2c2nn3c(=O)cc(C)nc3s2)cc1 (centres undefined)	-0.2	5.6	-2.0	-5.4	0.7	0.666	i	-2.8	-0.1	7.9
CCOC(=O)CCCNC(=O)CCNC(=O)c1ccc(OCCC(C)C)cc1	0.7	1.2	-5.2	-1.3	1.7	0.72	i	4.4	-15.2	-2.3
O=S(=O)(NC1CCCCC1Sc1ncccn1)c1ccc(Cl)cc1 (centres undefined)	-0.1	1.9	1.7	9.2	-0.7	0.738	i	.	-1.6	-5.9
Cc1ccccc1C(=O)Nc1nc(=S)ss1	-1.7	3.2	.	.	.	0.611	.	0.0	9.0	.
COc1cccc(NC(=O)C2CCN(S(=O)(=O)c3ccc4c(c3)NC(=O)C(C)S4)CC2)c1 (centres undefined)	0.6	2.3	-7.2	-20.7	2.9	0.698	i	7.0	-5.6	-1.0
CN(CCc1ccccn1)C(=O)CC1C(=O)NCCN1Cc1cccc(F)c1 (centres undefined)	0.8	-21.4	14.8	13.5	4.6	0.643	i	-0.5	-6.5	-0.7
O=C(CN1CCOCC1)Nc1ccc2c(c1)CCC2	0.3	-2.6	9.5	-5.2	-5.5	0.721	i	-13.4	-3.8	0.5
Cc1sc2nnn(CC(=O)N3CCN(C(=O)c4ccco4)CC3)c(=O)c2c1C	-0.1	-5.4	.	.	.	0.702	.	3.1	-8.9	.
Cc1ccccc1OCC(=O)OCC(=O)Nc1ccc2c(c1)OCO2	0.9	6.1	-0.2	5.6	0.8	0.714	i	-11.2	.	-0.1
CCN(CC(=O)NC(C)(C)C)Cc1cc(=O)n2c(-c3ccccc3)csc2n1	0.5	-0.2	-6.1	-2.6	2.9	0.689	i	2.0	4.0	-0.7
Cc1ccccc1/C=C/c1cccc[n+]1C	-0.1	13.8	3.7	4.5	-1.2	0.684	i	-10.6	13.9	2.2
O=C(c1ccco1)N1CCN(S(=O)(=O)c2cccc3nsnc23)CC1	-0.2	7.4	.	.	.	0.684	.	1.8	-13.8	.
CC12CN(S(=O)(=O)c3ccccc3)CC(C)(CN(S(=O)(=O)c3ccccc3)C1)C2	0.2	-0.4	.	.	.	0.634	.	-6.5	-9.7	.
O=C(CCN1C(=O)c2ccccc2C1=O)Nc1ccc(S(=O)(=O)N2CCOCC2)cc1	-0.3	-2.0	6.9	18.0	-7.1	0.755	i	5.0	-14.0	6.7
O=C1CCCC/C1=C/NCc1ccc(F)cc1	0.0	6.0	14.1	9.3	-1.1	0.696	i	-8.4	0.5	-2.5
O=C(Nc1ccccc1-c1ccccc1)c1ccccc1[N+](=O)[O-]	-0.9	1.3	-12.9	-9.3	-1.0	0.651	i	0.5	-5.5	1.8
COCCCn1c(=S)[nH]c(C)c(C)c1=O	0.8	2.1	5.7	-0.2	-2.3	0.657	i	-2.5	15.3	-0.4
Cc1ccnc(NC(=O)CCNC(=O)c2ccc(Cl)cc2)c1	-0.9	0.5	17.6	22.6	3.4	0.664	i	-0.2	-5.2	-3.1
(more compounds)
SMILES	Bfl-1 A1 inh	UCH37 inh	rRNA inh HTS	rRNA inh HTS OD600	rRNA inh HTS RFP	E coli growth	FGF22 binding	Beta apoptosis	T cruzi inh	MLL AF4-AF9 inh
COc1cc(CNc2nnnn2C)ccc1OCc1c(F)cccc1Cl	0.0	1.2	4.8	2.5	-2.6	0.678	i	-13.3	6.1	0.2
CCOC(=O)c1ccc(NC(=O)CCn2nnc3ccccc32)cc1	0.0	0.6	.	.	.	0.69	.	0.8	-3.8	.
CCSc1cc(C)nc2c(-c3ccccc3)cnn12	-0.9	0.7	.	.	.	0.625	i	2.1	12.0	3.2
CC(=O)Nc1ccc(NC2=CC(=O)CC(C)(C)C2)cc1	-0.2	7.2	.	.	.	0.742	.	3.5	2.3	.
CCN(C(=O)CSc1nc2ccccc2c(=O)n1-c1ccccc1F)C1CCS(=O)(=O)C1 (centres undefined)	1.4	2.4	4.5	2.9	-0.5	0.694	i	3.5	.	0.1
CCCC(C(=O)NCC1CCCO1)N(Cc1ccco1)C(=O)CNS(=O)(=O)c1ccccc1 (centres undefined)	0.1	0.9	.	.	.	0.704	.	-6.8	-12.3	.
Cc1ccccc1C1c2[nH]c3ccccc3c2C[C@H]2C(=O)N(C3CCN(Cc4ccccc4)CC3)CC(=O)N12 (some centres undefined)	0.7	.	-0.5	-6.2	24.1	.	i	6.3	60.6*	2.7
Cc1cc(C)nc(N2CCCC(C(=O)NCc3ccccc3F)C2)n1 (centres undefined)	0.0	0.0	7.8	8.5	0.8	0.716	i	-8.0	2.5	-1.8
COc1ccc(Cl)cc1C(=O)NCC(c1ccco1)N(C)C (centres undefined)	0.3	-1.2	10.5	7.7	2.7	0.685	i	-2.1	-1.0	-2.1
O=C(NCc1ccco1)c1cc2c(s1)CSC2	-0.3	-16.5	.	.	.	0.707	.	2.2	-11.8	.
Cc1c(Cl)cccc1NC(=O)CCC(=O)NNC(=O)c1ccccc1Cl	0.5	4.5	.	.	.	0.704	.	-2.9	-13.1	.
Cc1cnc(C(=O)OCC(=O)NC(C)c2ccccc2)cn1 (centres undefined)	-1.2	3.3	-1.5	2.2	-0.1	0.658	i	-3.8	.	-0.7
O=C(NN=Cc1ccccc1)c1ccccc1	.	2.3	6.6	16.4	0.5	0.645	.	.	.	-18.3
Cc1cccc(N2C(=O)C3C4C=CC(CC4)C3C2=O)c1 (centres undefined)	0.2	0.5	6.4	3.9	-6.1	0.673	i	1.2	-3.1	-0.3
O=S(=O)(NCC1CCCO1)c1cccc2nsnc12 (centres undefined)	0.1	2.5	.	.	.	0.655	.	-5.8	3.9	.
CC(=O)N1CCN(S(=O)(=O)c2cccc(C(=O)Nc3nccs3)c2)CC1	0.2	3.7	6.6	2.6	-3.4	0.663	i	-1.4	-13.1	-0.2
Cc1ccc2c(=O)cc(C(F)F)oc2c1	-0.5	5.3	.	.	.	0.72	.	-0.2	0.0	.
CCSC1=NCCN1C(=O)Cc1ccc(-c2ccccc2)cc1	0.1	1.3	1.7	5.5	0.6	0.729	i	-4.9	-0.1	-3.3
N#CC1=C(N)NC(SCC(=O)Nc2ccc(Br)cc2)=C(C#N)C12CCCCC2	1.2	2.5	.	.	.	0.711	.	2.7	27.6	.
CCc1ccc(S(=O)(=O)Nc2cc3c(cc2N2CCCCC2)n(C)c(=O)c(=O)n3C)cc1	-0.4	-0.4	-6.9	-15.2	-2.9	0.719	i	-1.7	7.5	0.0
CCOC(=O)CC1(C)SC(NC(C)=O)=NN1C(C)=O (centres undefined)	-0.9	0.7	-0.1	3.0	-2.1	0.706	i	-0.8	-23.4	-5.1
CCc1ccccc1NC(=O)COc1cccc(-n2cnnn2)c1	0.2	-0.7	-1.3	1.4	-1.5	0.672	i	-2.8	4.2	2.0
CC(=O)c1c(C(C)=O)c(C)n(NC(=O)c2ccccc2Cl)c1C	1.4	-0.7	.	.	.	0.721	.	-1.3	-14.3	.
Cc1ccc(C(=O)OCC(=O)N2CCC(C)CC2)cc1S(=O)(=O)N1CCCCC1	-0.8	-0.8	-10.9	-11.8	-1.0	0.718	i	-2.5	6.1	-0.6
O=C(COC(=O)CN1C(=O)NC2(CCCC2)C1=O)NCc1ccc(Cl)cc1Cl	0.1	1.0	-2.7	-3.3	-0.1	0.68	i	-1.8	.	-0.4
The list goes on.
SMILES	Bfl-1 A1 inh	UCH37 inh	rRNA inh HTS	rRNA inh HTS OD600	rRNA inh HTS RFP	E coli growth	FGF22 binding	Beta apoptosis	T cruzi inh	MLL AF4-AF9 inh
COCCn1c(=O)[nH]c2cc(C(=O)N3CCN(c4ccc(Cl)cc4)CC3)ccc2c1=O	-0.7	-0.1	18.9	10.0	-2.0	0.683	i	-7.5	19.5	-1.0
COc1ccc2cc(CCNC(=O)c3ccc4c(c3)OCO4)c(=O)[nH]c2c1	0.5	5.0	4.4	10.1	5.8	0.696	i	-11.7	-14.4	5.1
Cc1csc(NC(=O)CSc2nnc(Cn3c(=O)sc4ccccc43)n2-c2ccccc2)n1	0.0	2.6	-5.8	-6.3	0.2	0.758	i	-6.1	.	-4.5
CC(NC(=O)c1ccc(OC2CCN(Cc3ccccn3)CC2)cc1)c1nccs1 (centres undefined)	2.1	0.7	3.2	8.1	-1.9	0.68	i	2.2	-5.9	0.7
CN(CCc1ccccc1)C(=O)c1cccc(NC(=O)Cc2cccc(NC(=O)C3CCCN(C(=O)c4ccccc4)C3)c2)c1 (centres undefined)	.	0.8	6.9	3.1	3.1	0.702	.	.	.	-1.1
Cc1ccc(C)c2c1cc(C)c1nnc(SCC(=O)Nc3cccc(C(=O)O)c3)n12	0.2	1.0	1.8	1.7	2.9	0.689	i	-2.1	-4.7	-7.4
O=C(CCc1nc2ccccc2c(=O)[nH]1)NNC(=O)c1ccc(F)cc1	0.4	2.2	16.6	11.7	3.0	0.707	i	-1.8	.	-0.8
O=C(CCSCCC(=O)NN=Cc1ccccc1)NN=Cc1ccccc1	.	3.2	2.7	6.0	1.9	0.729	i	.	.	2.4
COc1cc(-n2c(=O)c3ccccc3n(CC(=O)c3ccc(F)cc3)c2=O)cc(OC)c1OC	0.5	4.5	6.3	-6.6	4.1	0.698	i	-3.8	3.7	-1.9
COc1ccc(-c2coc3cc(OC4OC(CO)C(O)C(O)C4O)ccc3c2=O)cc1 (centres undefined)	-8.3	1.6	15.4	4.7	3.4	0.682&0.727	i	7.3	-4.7	-1.5
CCN(CC)c1ccc(/C=N/NC(=O)c2ccccn2)cc1	-5.2	.	3.5	-3.3	-2.7	.	i	11.3	-1.8	1.7
C=CCN(c1cccc(C(F)(F)F)c1)S(=O)(=O)c1cccc(C(=O)OCC(=O)NC(N)=O)c1	-0.3	1.8	-6.0	-2.0	-1.9	0.692	i	-7.9	-10.5	-96.6
O=C(NCc1cc([N+](=O)[O-])ccc1O)c1cccnc1Sc1ccccc1Cl	0.4	5.4	-17.1	-20.0	2.1	0.677	i	4.4	-16.8	-1.4

A portion of the library; the hit share may differ from the screen's.
